HPGD inh: inhibitors of human 15-hydroxyprostaglandin dehydrogenase (HPGD); hit rate 4.3% among 150,000; Potency, µM, for inactives: at the highest dose activity change, negative = inhibition, most hits filed as inhibitors; purified HPGD, NADH fluorescence kinetic, PGE2 substrate; P15428; AID 894; active = well fitted inhibition curve with a large enough effect (not every such curve was filed as active); inconclusive = small, poorly fitted or top-dose-only effect, or another doubt; inactive = no such curve, though single readings can be large or run the other way;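 also: top concentration of the series not given in the record; plate controls included wells without enzyme; inactives centre near -10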
Target sequence (P15428 whole entry, looked up): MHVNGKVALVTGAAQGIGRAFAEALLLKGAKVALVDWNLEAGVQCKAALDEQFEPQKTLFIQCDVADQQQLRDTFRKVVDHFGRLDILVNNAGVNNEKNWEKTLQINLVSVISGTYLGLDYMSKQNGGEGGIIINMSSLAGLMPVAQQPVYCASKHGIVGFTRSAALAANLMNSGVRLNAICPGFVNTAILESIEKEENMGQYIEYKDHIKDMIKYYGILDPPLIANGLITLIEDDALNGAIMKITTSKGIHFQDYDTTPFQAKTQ
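NADH formation kinetics: reaction with 30 uM PGE2 and 1 mM NAD+ (final), 20 nM enzyme, Tris-HCl pH 8 with Tween 20, after 15 min compound preincubation at room temperature. Fluorescence change, last versus first of five reads.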
* = called active by the depositor; ? = inconclusive; & = joins results of further samples; [ ] = dose if it differs, or a comment. % is scaled to controls: 0 for no effect and ±100 for the full control effect; potency is read from the fitted curve at half-maximal effect.

| compound | HPGD inh |
| --- | --- |
| O=C(NC1=NCCS1)c1cc(-c2cccc(Br)c2)nc2ccccc12 | ? |
| CN(C)c1ccc(NC(=O)CN2CCN(CC(=O)Nc3ccc(F)cc3)CC2)cc1 | -11% |
| O=C(CSc1n[nH]c(-c2cccnc2)n1)Nc1ccnc2ccccc12 | 16µM* |
| CCOC(=O)CSc1nnc(C2CCCCC2)n1C | -7% |
| CC(=O)N1CC=C2C(C#N)=C(N)C(C#N)(C#N)C(C)C2C1 (stereo unspecified) | ? |
| CCCN1CCN(C(=O)CCCNC(=O)Cn2cnc3sc(C)c(C)c3c2=O)CC1 | -5% |
| CC(C)C(=O)Nc1cccc(-c2cn3ccsc3n2)c1 | 3% |
| OC1CCCN(Cc2c3ccccc3cc3ccccc23)C1 (stereo unspecified) | ? |
| COc1cnc(-c2ccccn2)nc1Sc1ccccc1Cl | -9% |
| O=C(c1ccc2ccccc2c1)c1c[nH]cc1-c1ccccc1 | -7% |
| CCCOc1ccc(C(CC(=O)O)NC(=O)C23CC4CC(CC(C4)C2)C3)cc1 (stereo unspecified) | -6% |
| Cc1ccc2c(c1)Sc1ccccc1CC2=O | 25µM* |
| CC(C)(C)C1CCc2onc(C(=O)Nc3ccc(F)cc3F)c2C1 (stereo unspecified) | -5% |
| COC(=O)CN(c1ccc(C)c(Cl)c1)S(C)(=O)=O | -10% |
| O=C(O)c1cccc2c1C(=O)N(C1CCCCC1)C2 | -10% |
| O=C(c1cnn2ccccc12)N1CCc2ccccc21 | -21% |
| COC(=O)Cn1cnc2sc(C)c(S(=O)(=O)N3CCN(c4ccccc4OC)CC3)c2c1=O | 1% |
| CCc1ccccc1NC(=O)CN(C)C(=O)COc1ccc(C)nc1[N+](=O)[O-] | -3% |
| COc1ccc(CCN(Cc2cc3cccc(C)c3[nH]c2=O)C(=O)N2CCCC2)cc1OC | -7% |
| COc1ccccc1-c1nnc(SCC(=O)Nc2ccc(Cl)cc2Cl)o1 | -12% |
| CCNc1nc(N)nc(Oc2ccc(OCc3ccccc3)nn2)n1 | -21% |
| O=C(NN=C1C2CC3CC(C2)CC1C3)c1cccs1 | -8% |
| CCCCCc1nc(N)c(C#N)c(-c2ccco2)c1CCCC | ? |
| CCOc1ccc(-c2nnn(CC(=O)N3CCCC3)n2)cc1OCC | -5% |
| C=C(C)CNC(=S)N/N=C(\C)c1ccc(Cl)s1 | -17% |
| CCc1nnc(NC(=O)[C@@H](NC(=O)c2cccc(S(=O)(=O)N3CCOCC3)c2)C(C)C)s1 | -7% |
| CCOC(=O)NCc1ccc2c(c1)cc(C)n2C | -13% |
| Cc1cc(C)n(/N=C/c2cccc(O)c2)c(=O)c1C(N)=O | -6% |
| COc1ccc(OC)c(NS(=O)(=O)c2cccs2)c1 | -17% |
| CCN1C(=O)c2cccc3c(S(=O)(=O)N(C(=O)c4cccnc4)c4ccc(OC)cc4)ccc1c23 | ? |
| CN(c1ccc(C(=O)N2CCN(Cc3ccc4c(c3)OCO4)CC2)cc1)S(=O)(=O)c1ccccc1 | -9% |
| Cc1cc([N+](=O)[O-])ccc1N(C)C | -18% |
| O=C(O)C/C(=C\c1ccco1)C(=O)O | -10% |
| CCn1nnnc1SCC(=O)Nc1cccc(NC(C)=O)c1 | -10% |
| COc1ccc(-c2nc3c(c4c2C[C@H](c2ccccc2)OC4)CN(C(=O)C2CCCCC2)CC3)c(C)c1 | -8% |
| CC(C)(C)c1ccc2c(c1)OCC(C(=O)O)O2 (stereo unspecified) | 5% |
| CS(=O)(=O)c1ccc(Cl)c(NC(=O)COC(=O)CNC(=O)c2ccc(Br)o2)c1 | 0% |
| CCOC(=O)C1=C(C)Nc2ncnn2C1c1ccccc1F (stereo unspecified) | -29% |
| Cc1cnn(-c2ccc3nnc(-c4ccc(Br)cc4)n3n2)c1 | ? |
| CC1=CCC2C(=O)N(c3cc(C)on3)C(=O)C2C1 (stereo unspecified) | -11% |
| COc1ccc(NC(=O)C(CC(=O)O)Cc2ccccc2)cc1 (stereo unspecified) | -5% |
| COc1cccc(C2C(C(N)=O)=C(C)Nc3nc(-c4ccccc4Cl)nn32)c1 (stereo unspecified) | -9% |
| CC(CCc1ccccc1)NC(=O)CSc1nccc(=O)[nH]1 (stereo unspecified) | -8% |
| COc1ccc(-c2nc3cnc(OC)nc3n(Cc3ccc(F)cc3)c2=O)cc1 | -2% |
| CN(C)CCOC(=O)c1cccc(Br)c1 | -8% |
| CCOc1ccccc1N(C(=O)Nc1cccc(Cl)c1)C1=NC(C)CS1 (stereo unspecified) | -9% |
| CCOC(=O)c1sc(NC(C)=O)nc1-c1ccccc1 | -10% |
| Cc1ccc(CS(=O)(=O)CCC(=O)NCCN(C)Cc2ccccc2)cc1 | -8% |
| Cc1nn(-c2ccccc2)c2c1C(c1ccc([N+](=O)[O-])cc1)N1C(=N2)C(=O)Nc2ccccc21 (stereo unspecified) | -24% |
| CC(C)(C)Nc1nc(SCc2ccccc2)nc(N2CCOCC2)n1 | -10% |
| COC(=O)c1[nH]c2ccc(C)cc2c1NC(=O)CN1CCN(c2ccc(F)cc2)CC1 | ? |
| CCCOC(=O)c1ccc(OC(=O)c2ccco2)cc1 | -15% |
| COc1ccc(OC)c(C2C(C(C)=O)=C(O)C(=O)N2Cc2cccnc2)c1 (stereo unspecified) | -12% |
| COc1ccc(S(=O)(=O)N2CCN(c3ccccc3OC)CC2)cc1OC | -12% |
| Cc1ccc(CS(=O)(=O)CCC(=O)N2CCOCC2)cc1 | -14% |
| COc1ccccc1/C=C/C=N/N1CCN(Cc2cccc3ccccc23)CC1 | -4% |

New compounds follow:
| compound | HPGD inh |
| --- | --- |
| CCC(=O)OC1c2ccccc2C(=O)N1Cc1ccccc1 (stereo unspecified) | -11% |
| CCCCCOc1ccc(NC(=O)c2cc(SC)ccc2Cl)cc1 | -5% |
| Cc1ccc(S(=O)(=O)c2cn(CC(=O)Nc3ccccc3)c3ccc(F)cc3c2=O)cc1 | -17% |
| Cc1ccc(Cn2c(SCC(=O)NCc3ccco3)nc3ccsc3c2=O)cc1 | -4% |
| Cc1cccc(-c2c3c(=O)n(C)c(=O)n(C)c3cn2CCO)c1 | -15% |
| COc1ccc(-c2cc3ccccc3oc2=O)cc1NC(=O)c1ccc(Br)o1 | ? |
| CCOc1ccc(CCNC(=O)C2CCC(=O)N2C2CCCCC2)cc1OCC (stereo unspecified) | -11% |
| Cc1ccc(S(=O)(=O)Cn2nnnc2CN2CCN(C(=O)c3ccco3)CC2)cc1 | -10% |
| CCOC(=O)/C(C#N)=C/c1ccc(OCC(=O)Nc2ccccc2)c(OC)c1 | ? |
| COc1ccc(-n2c(SCC(=O)N3CCCCC3)nnc2-c2cccnc2)cc1 | ? |
| N#CCN1CCN(CC(=O)Nc2cccc3ccccc23)CC1 | -7% |
| COC(=O)c1ccc2c(=O)n(CCCCCC(=O)NCc3ccccn3)c(=O)[nH]c2c1 | ? |
| CCN(CCCNC(=O)C1CCCN(S(=O)(=O)c2cnc[nH]2)C1)c1ccccc1 (stereo unspecified) | -9% |
| CCOC(=O)c1c(C)oc2ccc(OC(=O)COc3c(F)c(F)c(F)c(F)c3F)cc12 | -20% |
| COc1cc(OC)cc(C(C(=O)NC2CCCCC2)N(C(=O)c2ccno2)c2ccccc2)c1 (stereo unspecified) | -11% |
| CCN(CC)CCCC(C)n1c(-c2ccccc2)nc2c(NC3CCCCC3)nc(C)nc21 (stereo unspecified) | ? |
| CCOC(=O)Nc1ccc2c(c1)N(C(=O)N1CCN(C)CC1)c1ccccc1S2 | -17% |
| COc1cc(-c2nc3ccc4ccccc4c3c3c2CCC3)cc(OC)c1OC | ? |
| Cc1cc(C(C)(C)C)c(O)c(C(C)(C)C)c1 | -11%&2% |
| C/C(=N\NC(=O)c1ccc(Cn2cc([N+](=O)[O-])cn2)o1)c1cccc(NC(=O)c2cccnc2)c1 | -4% |
| Cc1cc(-n2c(C)cc(C(=O)CSc3ncnc4ccccc34)c2C)no1 | -29% |
| COC(=O)CSc1nnc(CNC(=O)c2ccccc2OC)n1-c1ccc(OC)cc1 | -9% |
| CCCCCCC(c1c(C)n(C)n(-c2ccccc2)c1=O)c1c(C)n(C)n(-c2ccccc2)c1=O | -10% |
| O=S(=O)(/N=C(/Nc1ccccn1)c1ccccc1)c1ccc(Cl)cc1 | -9% |
| CCOC(=O)C1CCCN(C(=O)CC(c2ccccc2)c2ccccc2)C1 (stereo unspecified) | 28µM* |
| O=C1C(=O)N(CCCn2ccnc2)C(c2cccnc2)/C1=C(/O)c1ccc(F)cc1 (stereo unspecified) | -10% |
| O=C(NCCOc1nc(N2CCOCC2)nc(N2CCOCC2)n1)Nc1ccccc1 | -8% |
| CN(c1ccc(C(=O)Nc2cccnc2)cc1)S(C)(=O)=O | -17% |
| Cc1cc(C)n(-c2nc3ccccc3nc2N2CCCC2)n1 | -4% |
| COc1ccc(C2Nc3ccccc3C(=O)N2Cc2ccco2)cc1COc1ccccc1F (stereo unspecified) | ? |
| O=C(CCCn1c(=O)[nH]c2cc(Cl)ccc2c1=O)N1CCN(c2ccc([N+](=O)[O-])cc2)CC1 | -3% |
| COc1ccc(C=NCCCN2CCOCC2)cc1 | -8% |
| Cc1ccc(Oc2nnc(-c3ccccc3)cc2C#N)cc1 | -2% |
| CC(NC(=O)c1ccccc1Cl)C1COc2ccccc2O1 (stereo unspecified) | -12% |
| COc1ccc(/C=N/Nc2nonc2N)cc1 | -18% |
| Cn1cc(CNC(=O)/C=C/c2ccc(Cl)cc2)cn1 | -1% |
| O=C(CCC(=O)N1CCN(S(=O)(=O)c2ccc(Cl)cc2)CC1)Nc1ccc(Cl)cc1Cl | 3% |
| Cc1ccc(NC(=O)CCNS(=O)(=O)c2cccc3nsnc23)cc1 | -16% |
| OC1CCCCC1Sc1nc2ccccc2s1 (stereo unspecified) | -20% |
| COc1ccc(C2C(C#N)C(C#N)N3CCCN23)cc1 (stereo unspecified) | -8% |
| COc1ccc(Cc2nnc(SCC(=O)Nc3ncc(C)s3)o2)cc1 | 6% |
| Cc1cc(C(F)(F)F)c2sc(N)nc2n1 | 44%[activator] |
| COc1cc(NC(=O)c2cc(Cl)ccc2Cl)ccc1-c1cc2ccccc2oc1=O | ? |
| CC1CCCN(CCOCCOc2ccccc2-c2ccccc2)C1 (stereo unspecified) | -4% |
| COc1ccc2c(c1)sc(N)[n+]2Cc1cc(C)cc2cccnc12 | -15% |
| O=c1c2ccccc2nnn1CSc1nc2sc3c(c2c(=O)n1CC1CCCO1)CCC3 (stereo unspecified) | -10% |
| COc1ccccc1CNC(=O)CCn1c(=O)[nH]c2ccsc2c1=O | -6% |
| CCC(C)(C)n1nnnc1C(c1cccc(C#N)c1)N1CCN(c2cccc(C)c2C)CC1 (stereo unspecified) | -9% |
| Cc1ccc(Nc2cc(C)nc3nc(C)nn23)cc1 | -3% |
| CC(C)CNC(=O)CC(=O)NN=C1CCCC1 | -6% |
| O=S(=O)(Nc1ccc(-n2cccc2)cc1)c1ccc(Cl)cc1Cl | -17% |
| COC(=O)C(CC(=O)c1ccc(Br)cc1)n1ccnc1 (stereo unspecified) | 2.5µM* |
| CC(C)c1ccc(NC(=O)CN(Cc2ccccc2)S(C)(=O)=O)cc1 | -15% |
| COCc1cc(C)n(CC(=O)N/N=C/c2ccc(-c3ccc(Cl)c(C(=O)O)c3)o2)c(=O)c1C#N | ? |
| CC1Oc2ccccc2OC1(O)c1ccc2ccccc2n1 (stereo unspecified) | -18% |
| C=CCS/C(=N\n1cnc2ccccc2c1=O)N(CC)CC | -1% |

Remaining list, next part:
| compound | HPGD inh |
| --- | --- |
| CC1=NN(c2ccccc2)C(=O)/C1=C/c1c(O)n(-c2ccc(F)cc2)[nH]c1=O | -25% |
| C=CCOc1nc(-c2ccncc2)nc2ccccc12 | -10% |
| COc1ccc(-c2ccc(-c3nnc(-c4ccncc4)o3)cc2)cc1 | -16% |
| O=C(Nc1cccnc1)Nc1ccc(F)c(Cl)c1 | -3% |
| NS(=O)(=O)c1cc(C(=O)O)c(O)c2ccccc12 | -26% |
| O=C(CN1C(=O)COc2ccccc21)c1cccc(Cl)c1 | -10% |
| CS(=O)(=O)Nc1c(O)ccc2c1CCC[C@H]2C1=NCCN1 | 2% |
| Cc1ccc(-n2nc(C)c3c(-c4cccs4)c(C#N)c(N)nc32)cc1 | ? |
| COc1ccccc1CNC(=O)C1CCCN(S(=O)(=O)c2c(C)[nH]c(=O)[nH]c2=O)C1 (stereo unspecified) | -11% |
| COc1ccc(N(C(=O)c2ccc(F)cc2)C2=CC3CCC(C2)N3C)cc1 (stereo unspecified) | -10% |
| COc1cc(NC2=Nc3cccc4cccc2c34)cc(OC)c1OC | -10% |
| Cn1nnnc1SCC(=O)c1ccco1 | -9% |
| Cc1noc(C)c1COC(=O)CCCc1nc2ccccc2s1 | -9% |
| CCn1c(SCC#N)nc2c(c1=O)C1(CCCC1)Cc1ccccc1-2 | -11% |

Not all compounds are listed; count on the stated rates, not on these rows.
